Assay outcomes: PubChem, Broad Institute
FGF22 binding: FGF22 (human) thermal shift binding; actives 1.5% (n = 340,000); Q9HCT0; calls only at 9.99 µM; recombinant FGF22 thermal shift, SYPRO orange fluorescence; percent of sucrose octasulfate shift, DMSO zero;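 active = melting point raised past a set limit in the mean and every replicate; three in four hits are not shown here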
Target sequence (Q9HCT0 whole entry, looked up): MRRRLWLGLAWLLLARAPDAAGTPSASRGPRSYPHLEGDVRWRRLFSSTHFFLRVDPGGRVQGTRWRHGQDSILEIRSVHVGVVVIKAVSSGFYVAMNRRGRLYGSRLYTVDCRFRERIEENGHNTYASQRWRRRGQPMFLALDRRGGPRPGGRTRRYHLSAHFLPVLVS
rRNA inh HTS: inhibitors of bacterial rRNA selective over humanized ribosomes; GFP signal change (wild-type ribosome), % (no concentration beside the values); actives 1.6% (n = 350,000); E. coli WT GFP vs humanized-ribosome RFP mutants, fluorescence, 24 h; hits give low values; DMSO median 0, no signal -100;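 active = significant combined selectivity score with lowered wild-type GFP, culture density cut under 30%, mutant RFP and density less affected; inactive = any of these conditions unmet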; also: one replicate is shown; some compounds called inactive have numbers as strong as hits
MLL AF4-AF9 inh: blocks AF4 peptide binding to human AF9 | actives 0.47% (n = 350,000) | P42568 | inhibition, % at 10 µM | AlphaScreen, biotin-AF4 peptide binding to FLAG-AF9;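 active = every replicate reaching a set inhibition limit, whatever the replicate mean, cut at about 25% in these data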;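 also: 0% = plate neutral control median and 100% = total signal loss; the record names both 10 and 1 µM as test concentration; the first replicate is given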
Target sequence (P42568 whole entry, looked up): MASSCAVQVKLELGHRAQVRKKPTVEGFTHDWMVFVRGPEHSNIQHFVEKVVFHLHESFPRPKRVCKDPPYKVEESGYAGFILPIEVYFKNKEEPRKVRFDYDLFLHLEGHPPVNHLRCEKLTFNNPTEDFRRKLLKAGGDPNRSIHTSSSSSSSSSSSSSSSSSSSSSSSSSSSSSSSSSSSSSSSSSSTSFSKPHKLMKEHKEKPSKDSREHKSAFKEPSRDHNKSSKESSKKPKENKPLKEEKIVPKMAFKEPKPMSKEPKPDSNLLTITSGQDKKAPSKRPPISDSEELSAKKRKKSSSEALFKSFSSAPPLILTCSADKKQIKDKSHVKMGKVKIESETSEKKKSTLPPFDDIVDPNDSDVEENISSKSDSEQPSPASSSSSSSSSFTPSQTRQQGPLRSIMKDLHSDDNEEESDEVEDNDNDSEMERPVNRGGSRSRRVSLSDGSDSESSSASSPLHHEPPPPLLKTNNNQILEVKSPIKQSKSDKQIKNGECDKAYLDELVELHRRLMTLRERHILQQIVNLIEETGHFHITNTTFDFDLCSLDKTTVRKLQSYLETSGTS
rRNA inh HTS OD600: recorded beside rRNA inh HTS, whose call it bears; OD600 change, %; measured here: OD600 growth;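 optical density of the mix in the first replicate; 0 = DMSO median and -100 = no signal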
rRNA inh HTS RFP: recorded beside rRNA inh HTS, whose call it bears; RFP signal change, %; measured here: RFP humanized mutant strains;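 first replicate; 0 = DMSO median and -100 = no signal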
An asterisk follows results filed as active; i = inactive; + = active, no number. This is a subset, so the mix of outcomes need not match the whole.

SMILES	FGF22 binding	rRNA inh HTS	rRNA inh HTS OD600	rRNA inh HTS RFP	MLL AF4-AF9 inh
O=C(C[C@@H]1C=C[C@H](NC(=O)Nc2cccc(F)c2)[C@@H](CO)O1)NCC1CCCCC1	i	-6	-1	-1.0	-2.6
C[C@@H]1CN([C@H](C)CO)C(=O)c2cc(-c3cncnc3)cnc2O[C@H]1CN(C)Cc1ccccc1	i	5	3	-4.8	-3.7
Cc1ccc(-c2cnc3c(c2)C(=O)N([C@H](C)CO)C[C@@H](C)[C@H](CN(C)C(=O)c2cccnc2)O3)cc1	i	-1	-3	-3.1	-1.4
COCCCN1C(=O)C(CC(=O)NC2CC2)CC(C(=O)N2CCOCC2)=C1C (stereo not given)	i	4	-2	-0.3	0.7
CCOC(=O)C1=C(N)n2c(s/c(=C\c3cccnc3)c2=O)=C(C#N)C1c1cccnc1 (stereo not given)	i	5	0	-3.0	-3.2
COc1ccc(S(=O)(=O)Nc2ccc3c(c2)OC[C@@H](C)N(C)C[C@@H](C)[C@H](OC)CN(C)C3=O)cc1	i	-1	1	-0.4	1.8
O=C(C[C@@H]1CC[C@H]2[C@@H](COC[C@@H](O)CN2C(=O)c2cnccn2)O1)NCc1ccc(Cl)cc1	i	4	3	-5.8	-4.1
C[C@@H]1CCCCO[C@H](CN(C)C(=O)c2ccccc2)[C@H](C)CN([C@@H](C)CO)C(=O)c2cc(NC(=O)c3ccncc3)ccc2O1	i	-5	-5	-0.9	-25
COc1ccccc1N1CCN(C(=O)c2ccc3noc(-c4ccccc4)c3c2)CC1	i	-13*	-20*	6.7*	21
CC(=O)N(C)C[C@H]1Oc2cc(-c3ccccc3F)ccc2S(=O)(=O)N([C@H](C)CO)C[C@H]1C	i	-10	3	0.5	-4.3
CC(C)(C)S(=O)(=O)N1C[C@@H]2C(=CC[C@H]3C(=O)N(c4ccccc4)C(=O)[C@@H]23)[C@@H]1CCO	i	7	10	0.8	3.5
COc1ccc(OCc2nnc(SC(C)C(=O)Nc3ccc(N4CCOCC4)cc3)n2C)cc1 (stereo not given)	i	5	16	-0.4	2.4
OC[C@@H]1[C@@H](c2ccccc2)[C@@H](CNCC2CCC2)N1CC1CC1	i	-1	-4	-0.5	1.2
C[C@@H]1CN([C@@H](C)CO)C(=O)Cc2cc(NC(=O)Nc3ccc4c(c3)OCO4)ccc2O[C@H]1CN(C)Cc1ccncc1	i	-6	-20	-1.3	10
CO[C@H]1CN(C)C(=O)c2cc(NC(=O)Nc3cccc(Cl)c3)ccc2OC[C@H](C)NC[C@H]1C	i	-6	-8	5.3	6.8

Three structures already listed, ordered by SMILES length, falling:
SMILES	FGF22 binding	rRNA inh HTS	rRNA inh HTS OD600	rRNA inh HTS RFP	MLL AF4-AF9 inh
Cc1ccc(-c2cnc3c(c2)C(=O)N([C@H](C)CO)C[C@@H](C)[C@H](CN(C)C(=O)c2cccnc2)O3)cc1	i	-1	-3	-3.1	-1.4
CCOC(=O)C1=C(N)n2c(s/c(=C\c3cccnc3)c2=O)=C(C#N)C1c1cccnc1 (stereo not given)	i	5	0	-3.0	-3.2
COc1ccc(OCc2nnc(SC(C)C(=O)Nc3ccc(N4CCOCC4)cc3)n2C)cc1 (stereo not given)	i	5	16	-0.4	2.4

(further entries)
SMILES	FGF22 binding	rRNA inh HTS	rRNA inh HTS OD600	rRNA inh HTS RFP	MLL AF4-AF9 inh
C[C@H]1CN([C@@H](C)CO)C(=O)c2cc(NC(=O)Nc3cccc4ccccc34)ccc2O[C@@H]1CN(C)Cc1ccc(Cl)c(Cl)c1	i	5	9	1.4	-1.4
O=C(Nc1nnc([C@@H]2C[C@H](O)[C@@H](CO)O2)s1)Nc1ccccc1C(F)(F)F	i	12	25	-0.9	-9.2
O=C(C[C@H]1C[C@@H]2c3cc(NC(=O)C4CCOCC4)ccc3O[C@@H]2[C@@H](CO)O1)NCc1cccnc1	i	5	7	-1.1	-1.4
C[C@@H]1CN([C@H](C)CO)C(=O)c2cc(/C=C/c3ccccc3)cnc2O[C@@H]1CN(C)C(=O)CN(C)C	i	4	16	-6.4	2.9
C[C@H](CO)N1C[C@H](C)[C@@H](CN(C)S(C)(=O)=O)Oc2ccc(NS(=O)(=O)c3ccccc3)cc2CC1=O	i	6	8	-0.2	4.1
CC(=O)N(C)C[C@@H]1OCc2ccccc2-c2c(n(C)c3ccccc23)C(=O)N([C@@H](C)CO)C[C@H]1C	i	0	11	-4.4	-6.3
COc1ccc(-c2nc3ccc(Cl)cn3c2Cc2ccccc2C(F)(F)F)cc1OC	i	-8	-4	-4.7	-2.8
COCC(=O)N1[C@H](C#N)[C@@H](c2ccc(C#CCC3CCCC3)cc2)[C@H]1CO	i	-28	-66	14	4.5
COCCNC(=O)C[C@H]1CC[C@@H]2[C@@H](COc3ccc(NS(=O)(=O)c4ccc(Cl)cc4)cc3C(=O)N2C)O1	i	1	17	0.9	-0.9
C[C@H](CO)N1C[C@H](C)[C@H](CN(C)Cc2ccc(-c3ccccc3)cc2)Oc2ccc(NC(=O)CCN3CCOCC3)cc2C1=O	i	-1	-2	-1.0	6.9
Cc1noc(C)c1NC(=O)N[C@H]1CC[C@@H](CC(=O)N2CCCCC2)O[C@H]1CO	i	2	0	-5.2	-0.7
COc1ccc(NC(=O)Nc2ccc3c(c2)C(=O)N([C@H](C)CO)C[C@@H](C)[C@H](CN(C)Cc2ccc4c(c2)OCO4)O3)cc1	i	-5	-17	-0.6	15
C[C@H](O)C#Cc1ccc([C@H]2[C@H](CO)N3CCCCN(CC4CCOCC4)C[C@@H]23)cc1	i	7	16	-2.0	-0.6
COc1cccc(OC)c1C(=O)NCCNc1nc2cc(C)cc(C)c2cc1C#N	i	-6	-16	-1.6	0.3
O=C(Nc1ccccc1F)N1CCCCN2[C@@H](CO)[C@@H](c3ccc(C#Cc4ccccc4)cc3)[C@@H]2C1	i	-58	-67	-9.7	4.7
C[C@@H]1CN([C@@H](C)CO)C(=O)c2cc(-c3cccc(C#N)c3)cnc2O[C@@H]1CN(C)Cc1ccccc1	i	0	4	-2.4	-4.3
COc1ccc(S(=O)(=O)Nc2ccc3c(c2)C(=O)N([C@@H](C)CO)C[C@@H](C)[C@H](CN(C)S(=O)(=O)c2ccccc2)O3)cc1	i	0	-3	1.5	0.6
CC(C)(C)OC(=O)N1CCCC(C(=O)Nc2cccc(C(=O)NCc3ccccc3)c2)C1 (stereo not given)	i	-4	-16	-7.8	-1.1
CCCNC(=O)C[C@H]1CC[C@@H]2[C@H](COc3ccc(NC(=O)c4ccc5c(c4)OCO5)cc3C(=O)N2C)O1	i	1	6	-1.5	-1.8
CC(=O)Nc1ccc(CN(C)c2c(C)nc3ccc(C(=O)Nc4ccc(Cl)c(Cl)c4)cn23)cc1	i	-16	-22	-1.9	1.5
O=C(OC1CC2CC1[C@H]1CCCCN1C2=O)N1CCC(c2ccccc2)CC1 (stereo not given in full)	i	-13	-16	1.6	0.6
O=C(C[C@H]1C[C@H]2c3cc(NC(=O)C4CCC4)ccc3O[C@H]2[C@H](CO)O1)NC1CCCCC1	i	2	6	0.0	-0.6
ON=C1c2ccccc2-c2cc(Br)ccc21	i	-55	-77	-10	0.2
CN1CCCCN2[C@H](CO)[C@@H](c3ccc(C#Cc4ccccc4F)cc3)[C@@H]2C1	i	2	0	27	18
CC(C)C#Cc1ccc2c(c1)O[C@@H](CN(C)C(=O)c1ccncc1)[C@H](C)CN([C@H](C)CO)S2(=O)=O	i	-1	-4	-5.1	0.8
O=C(CC1CC1)N1CC2(C1)[C@@H](c1ccccc1)[C@H](CO)N2Cc1ccc(F)cc1	i	-3	-6	0.5	1.3
CCCNC(=O)C[C@H]1CC[C@@H]2[C@@H](COc3ccc(NC(=O)c4cscn4)cc3C(=O)N2C)O1	i	-1	-1	0.2	-1.8
CC(C)c1cn(CC[C@H]2CC[C@@H](NC(=O)C3CCCCC3)[C@@H](CO)O2)nn1	i	1	4	-0.7	-1.4
CCN(c1ccccc1)c1nc(Cl)nc2c1cnn2C	i	-24	-56	-13	-14
CCOC(=O)C1=C(C(=O)OCC)C2N(Cc3ccc(Br)cc3)c3ccccc3[C@@]23C[C@@H](C(=O)OC)N(S(=O)(=O)c2cccs2)C3=N1 (stereo not given in full)	i	10	18	-1.2	-0.3
COc1ccc(CCC(=O)Nc2cccc(S(=O)(=O)N3CCCCCC3)c2)cc1	i	-9	-4	2.5	2.4
C[C@@H]1CN([C@@H](C)CO)C(=O)Cc2cc(NS(=O)(=O)c3cn(C)cn3)ccc2O[C@H]1CN(C)S(C)(=O)=O	i	4	9	-2.0	0.0
C[C@H](CO)N1C[C@H](C)[C@H](CN(C)C(=O)NC2CCCCC2)Oc2ccc(NC(=O)Nc3ccc(F)cc3)cc2CC1=O	i	0	-9	0.6	-1.0
C[C@@H]1CN([C@H](C)CO)C(=O)c2cc(NC(=O)Cn3cnnn3)ccc2O[C@@H]1CN(C)Cc1ccc(C(=O)O)cc1	i	6	-2	0.4	-3.8
C[C@H]1CN([C@@H](C)CO)C(=O)c2cc(NC(=O)Cn3cnnn3)ccc2O[C@H]1CN(C)C(=O)Nc1cccc2ccccc12	i	3	2	-0.2	-1.1
CO[C@@H]1CN(C)C(=O)c2ccc(NC(=O)Nc3cccc(Cl)c3)cc2OC[C@H](C)N(C(=O)Nc2c(C)noc2C)C[C@@H]1C	i	-2	-2	10	5.2
Cc1cc2nc(CN(C)C(=O)C3CCC(=O)N(C4CCCC4)C3)[nH]c2cc1C (stereo not given)	i	11	11	3.6	-2.1
CNC[C@H]1Oc2ccc(NC(=O)Nc3ccc(C(F)(F)F)cc3)cc2CC(=O)N([C@@H](C)CO)C[C@@H]1C	i	-2	1	0.6	-2.9
COc1ccc(NC(=O)Nc2ccc3c(c2)C(=O)N([C@@H](C)CO)C[C@H](C)[C@H](CN(C)Cc2ccc(C(F)(F)F)cc2)O3)cc1	i	4	-10	4.3	-5.1
CCN1C(=O)[C@H]2[C@@H](c3ccc(OC)cc3)N[C@]3(CCCN(Cc4ccc(Cl)cc4)C3=O)[C@H]2C1=O	i	0	2	-1.6	1.3
C[C@@H]1CN([C@@H](C)CO)C(=O)c2cc(NC(=O)Nc3ccc(F)cc3)ccc2O[C@@H]1CN(C)Cc1ccccc1	i	-2	-14	11	-2.4
C[C@H]1CN([C@@H](C)CO)S(=O)(=O)c2ccc(C#CCC3CCCC3)cc2O[C@@H]1CN(C)C	i	-59	-81	-24	14
O=C(C[C@H]1C[C@H]2c3cc(NC(=O)C4CCOCC4)ccc3O[C@H]2[C@H](CO)O1)NCc1ccc(Cl)cc1	i	2	0	-1.2	-0.6
O=C(C1CCCC1)N1C[C@@H]2[C@H](c3ccccc31)[C@@H](CO)N2C(=O)c1cccnc1	i	1	-2	-0.8	-2.6
C[C@@H]1CN([C@@H](C)CO)C(=O)c2c(c3ccccc3n2C)-c2ccccc2CO[C@H]1CN(C)C(=O)Nc1cccc(F)c1	i	-3	-2	2.2	0.9
CCSc1nnc(NC(=O)CN2C(=O)N(C)C3(CCCCC3)C2=O)s1	i	-8	-6	-0.5	-1.5
C[C@@H]1CN([C@H](C)CO)S(=O)(=O)c2ccc(-c3ccccc3F)cc2O[C@@H]1CN(C)C(=O)C1CC1	i	-1	-14	-0.2	-1.4
COc1ccc(S(=O)(=O)Nc2ccc3c(c2)C(=O)N([C@@H](C)CO)C[C@@H](C)[C@H](CN(C)C(=O)Nc2ccc4c(c2)OCO4)OCCCC[C@H](C)O3)cc1	i	1	4	-3.8	1.4
CC1=C(C(=O)N2CCOCC2)CC(CC(=O)NCC2CCCCC2)C(=O)N1Cc1ccc(F)cc1 (stereo not given)	i	12	3	0.7	0.5
OC(c1cccc(Cl)c1)c1nc(/C=C/c2ccccc2)cs1 (stereo not given)	i	-54	-75	-18	-0.1
C[C@@H]1CN([C@H](C)CO)C(=O)c2cc(C#Cc3ccccc3)cnc2O[C@@H]1CN(C)C(=O)C1CC1	i	-1	2	-1.5	-9.0
C[C@@H]1CN([C@H](C)CO)C(=O)Cc2cc(NC(=O)C3CC3)ccc2O[C@H]1CN(C)S(=O)(=O)c1cn(C)cn1	+	-1	17	-2.6	0.0
CN(C)CC(=O)N[C@@H]1C=C[C@H](CC(=O)NCc2ccc(Cl)cc2)O[C@H]1CO	i	0	-1	-0.4	-0.4
CC(C)NC(=O)N(C)C[C@H]1OCCCC[C@H](C)Oc2ccc(NS(=O)(=O)c3ccc(F)cc3)cc2C(=O)N([C@H](C)CO)C[C@@H]1C	i	-4	3	1.1	-2.4

One compound at a time (already shown).
Shown for COc1ccccc1N1CCN(C(=O)c2ccc3noc(-c4ccccc4)c3c2)CC1 → FGF22 binding = i; rRNA inh HTS = -13*; rRNA inh HTS OD600 = -20*; rRNA inh HTS RFP = 6.7*; MLL AF4-AF9 inh = 21
Shown for C[C@H](CO)N1C[C@H](C)[C@H](CN(C)Cc2ccc(-c3ccccc3)cc2)Oc2ccc(NC(=O)CCN3CCOCC3)cc2C1=O → FGF22 binding = i; rRNA inh HTS = -1; rRNA inh HTS OD600 = -2; rRNA inh HTS RFP = -1.0; MLL AF4-AF9 inh = 6.9
